H5N1 CPE = MDCK cell protection from H5N1 avian flu | inhibition, % at 50 µM | 96,000 compounds, 0.07% hits | cytopathic effect, luminescence, 72 h; active compounds read high; no value below 0 was filed and about half of the inactive calls have no number; reference of the scale not given here; in the data active = inhibition above about 25%
* hit, by the source's call; i = inactive. The list is partial. The share of hits here may be higher or lower than overall.

SMILES | H5N1 CPE
O=C(N/C(=C/c1ccco1)C(=O)N1CCCC1)c1cccs1 | i
CCCn1nnc(NC(=O)c2ccc(Br)o2)n1 | i
O=C(NC1CCCCC1)C1CCN(c2cnccn2)CC1 | i
Cn1c(=O)n(-c2ccc(Cl)cc2)c(=O)c2c3c(sc21)COC(C)(C)C3 | 0.5
CCOC(=O)CSc1nnc(-c2ccc(OC)cc2)n1CC | 0.2
O=C(c1ccco1)N1CCN(Cc2cccc(F)c2)CC1 | 0.2
CCc1cc2c(N3CCCCC3)ncnc2s1 | i
Cc1ccc(-c2nnc3c(C(F)(F)F)nc4ccccc4n23)cc1 | 1.3
COc1cc(F)ccc1S(=O)(=O)N1CCN(C23CC4CC(CC(C4)C2)C3)CC1 | 5.1
CC12CCC(C(=O)NC3CCCC3)(CC1=O)C2(C)C (stereo unspecified) | 0.5
COc1ccc(OC)c(-c2csc3nnc(SCC(=O)Nc4ccc(NC(C)=O)cc4)n23)c1 | 2.0
Cc1cc(C)n(-c2ccc(C(=O)Nc3ccc4c(c3)OCCO4)cc2)n1 | i

A draw from above in order of formula weight, lowest first.
SMILES | H5N1 CPE
CCc1cc2c(N3CCCCC3)ncnc2s1 | i
CC12CCC(C(=O)NC3CCCC3)(CC1=O)C2(C)C (stereo unspecified) | 0.5
O=C(N/C(=C/c1ccco1)C(=O)N1CCCC1)c1cccs1 | i
Cn1c(=O)n(-c2ccc(Cl)cc2)c(=O)c2c3c(sc21)COC(C)(C)C3 | 0.5
COc1ccc(OC)c(-c2csc3nnc(SCC(=O)Nc4ccc(NC(C)=O)cc4)n23)c1 | 2.0

(list continues)
SMILES | H5N1 CPE
COC(=O)c1cc2c(s1)-c1ccccc1OC2 | 2.2
CCN(CC)c1cnn(C/C(=N\OC)c2ccc(Cl)cc2)c(=O)c1Br | 0.1
COc1ccc(OCCC(=O)OCC(=O)NC(=O)NC(C)C)cc1 | 0.5
O=C(/C=C/c1ccccc1)NC(=S)NNC(=O)c1cccnc1 | 1.1
COc1ccccc1C(=O)Nc1nnn(C)n1 | 0.4
O=C(CCCOc1ccccc1)N1CCc2ccccc2C1 | 0.1
CCOC(=O)N1CCN(C(=O)c2ccc(N3CCCC3=O)cc2)CC1 | 0.3
OC1(c2cccc(C(F)(F)F)c2)CCN(c2ncnc3c2[nH]c2ccccc23)CC1 | i
CN(CC(=O)O)S(=O)(=O)c1cccs1 | i
CN(C)CCCCNCCCNC(=O)/C=N\O | i
CCOc1ccc2[nH]c(=O)c(CN(CCc3ccccc3)C(=O)N3CCCC3)cc2c1 | 0.1
CCc1ccccc1OCCCCN1CCCC1 | i
C=CCn1c(-c2c[nH]c3ccccc23)n[nH]c1=S | 0.9
CC(=O)c1ccc(NC(=O)CSc2nccn2CCc2ccccc2)cc1 | 0.1
c1ccc(CCNc2ncnc3c2nnn3Cc2ccccc2)cc1 | i
COc1ccccc1CNC(=O)CCCNS(=O)(=O)c1cccc2nsnc12 | 1.3
Cc1ccccc1-n1nc(-c2ccc(N)cc2)cc1N | i
COc1ccc(CCNC(=O)c2oc3ccc(S(=O)(=O)N4CCOCC4)cc3c2C)cc1OC | 0.2
O=C(CSC1=NCCS1)N1CCCC1 | 0.8
Cc1ccc(-c2ccc(=O)n(CC(=O)NCCN3C(C)CCCC3C)n2)cc1 (stereo unspecified) | 2.3
O=C(COC(=O)c1cc[n+]([O-])cc1)NCC12CC3CC(CC(C3)C1)C2 | 0.6
CC(=O)OC12CC3CC(C1)C(=NO)C(C3)C2 | 0.1
CCOC(=O)N1CCC(n2c(SCC(=O)c3ccccc3)nc3ccsc3c2=O)CC1 | i
CCCC(=O)O[C@@H]1C[C@@H](C)N(C(=O)c2ccccc2)c2ccc(C)cc21 | 1.8

Retrieved by compound from above:
SMILES | H5N1 CPE
c1ccc(CCNc2ncnc3c2nnn3Cc2ccccc2)cc1 | i
CCCC(=O)O[C@@H]1C[C@@H](C)N(C(=O)c2ccccc2)c2ccc(C)cc21 | 1.8
O=C(CSC1=NCCS1)N1CCCC1 | 0.8
COc1ccccc1CNC(=O)CCCNS(=O)(=O)c1cccc2nsnc12 | 1.3
O=C(COC(=O)c1cc[n+]([O-])cc1)NCC12CC3CC(CC(C3)C1)C2 | 0.6

Continuation:
SMILES | H5N1 CPE
CCS(=O)(=O)N1CCC(NC(=O)c2ccco2)CC1 | 3.0
COc1ccc(OCC(=O)Nc2sc3c(c2C(=O)NCC2CCCO2)CCC3)cc1 (stereo unspecified) | 1.3
N/C(Cc1ccc([N+](=O)[O-])cc1)=N\OC(=O)c1ccc([N+](=O)[O-])cc1 | 0.2
COC(=O)CN1C(=O)C2(OCCCO2)c2ccccc21 | i
CCOC(=O)C1=C(N)OC2=C(C(=O)CCC2)C1c1ccco1 (stereo unspecified) | 1.9
Cc1ccc(-c2cc(C(=O)Nc3c(C)n(C)n(-c4ccccc4)c3=O)[nH]n2)c(O)c1 | 0.1
CCC(CC)c1nnc(NC(=O)c2nc3nc(C)cc(C)n3n2)s1 | 0.2
COc1ccc(NCc2nnc(SCC(=O)c3ccc(OC)cc3)o2)cc1 | i
COc1ccc2[nH]c(=O)c(CNC3CCCCC3)cc2c1 | 0.3
COc1ccc(CN2c3cc(S(=O)(=O)N4CCOCC4)ccc3N3CCCC32)cc1 (stereo unspecified) | 1.3
Cc1ccc(-c2csc(-c3c[nH]c4ccccc34)n2)cc1 | 0.2
Cc1nc(C)c(C(=O)Nc2nc3c(C)cccc3s2)o1 | i
Cc1ccc(CSCC(=O)Nc2ccc3c(c2)OCO3)cc1 | i
COc1cccc(/C=N/N2C(=O)NC3(CCCCC3)C2=O)c1O | 0.0
Clc1ccc(C(c2nnnn2C2CCCC2)N2CCN(Cc3ccncc3)CC2)cc1 (stereo unspecified) | 1.6
NC(=O)c1cc(Br)cc2c3c([nH]c12)CCCC3 | i
O=C(Cc1ncn[nH]1)NCCc1ccccc1 | 1.5
CCCSC1=C(C#N)C(c2ccccc2C)C(C(=O)OC)C(=O)N1 (stereo unspecified) | i
CCCCn1c(O)c(C=NC2CCCCC2N)c(=O)[nH]c1=O (stereo unspecified) | i
COc1ccc(NC(=O)ON=C2c3ccccc3-c3ccccc32)cc1 | i
Cn1c(SCC(=O)N/N=C/c2cccs2)nc2ccccc21 | 2.6
O=C(O)c1cccc2[nH]c(C(F)(F)F)nc12 | 0.1
N#CCc1ccc(NS(=O)(=O)c2ccc(N3CCCC3=O)cc2)cc1 | 0.6
Cc1cc(C)c2nc(NC(=O)c3ccc4c(c3)OCO4)sc2c1 | i
CC(C)C(NC(=O)C12CC3CC(CC(C3)C1)C2)C(=O)NC1=NCCS1 (stereo unspecified) | 0.7
Cc1ccc(OCCCNCCO)c(Br)c1 | i
CCOc1ccc(C2CC(c3cccc(OC)c3)Nc3nc(N)nn32)cc1 (stereo unspecified) | i
O=c1cc(C(F)(F)F)c2sc(N3CCCCC3)nc2[nH]1 | 0.7
Cc1ccc(C(=O)Nc2ccon2)cc1S(=O)(=O)N1CCOCC1 | 0.6
CC(C)=CC(=O)Nc1nnc(-c2ccccc2)s1 | 0.5
O=C(Cc1ccccc1)N1CCc2ccccc21 | 0.2
CC1(C)OC(C(N)=O)C(C(N)=O)O1 (stereo unspecified) | i
COc1cccc(C(=O)NCc2ccccc2OC)c1 | 0.4
CCOC(=O)c1cc(-c2ccccc2)n(CC(=O)N2CCCC2)c1C | 0.0
O=C(Nc1cccnc1)Nc1ccc(Br)cc1Cl | 2.6
CC1C(c2ccccc2)=[N+]([O-])C2(CCCC2)N1O (stereo unspecified) | 1.4
Cc1ccc2c(c1)C1CN(C)CCC1N2C(=O)c1ccco1 (stereo unspecified) | 0.2
COCc1cc(C)nc2sc3c(=O)n(-c4cccc5ccccc45)nnc3c12 | 1.7
C=CCn1c(-c2cccn(Cc3cccc(Cl)c3)c2=O)n[nH]c1=S | 0.1
CC(C)(C)C(=O)NC(Nc1cccc2cccnc12)C(Cl)(Cl)Cl (stereo unspecified) | 6.5
COc1ccc(CN(C(=O)c2snc(C(N)=O)c2N)C(C(=O)NC(C)(C)C)c2ccco2)cc1 (stereo unspecified) | 0.9
CC(C)Cn1nc(NC(=O)C(C)(C)C)c2cc3ccccc3nc21 | 0.2
Cn1c(SCC(=O)NC2CCCCCC2)nnc1-c1cccs1 | 1.2
Nc1nc(-c2ccccc2)nn1C(=O)Cc1ccccc1 | 1.9
O=C(O)c1ncc(-c2ccccc2)cn1 | 0.3
CC1CCc2cc(F)cc3c(O)c(C(=O)NCC4CCCO4)c(=O)n1c23 (stereo unspecified) | i
COc1ccc(N2CCN(C(=S)Nc3cc(C)cc(C)c3)CC2)cc1 | i
COC(=O)C(NC(=O)c1ccc(F)cc1)(Nc1ncc(S(=O)(=O)c2ccc([N+](=O)[O-])cc2)s1)C(F)(F)F (stereo unspecified) | 4.7
O=S(=O)(NC1CCCCCC1)c1cccc2cccnc12 | 4.4
O=C(CCC1CCCCC1)Nc1cccnc1 | i
CC(=O)c1cc2cc(O)ccc2o1 | 0.5
Cc1ccc(C(=O)n2cc(CCN3CCS(=O)(=O)CC3)c3ccccc32)cc1 | 1.1
O=Cc1c(N2CCN(c3cccc(Cl)c3)CC2)nc2ccccn2c1=O | 0.7
COC(=O)c1c(NC(=O)Cn2nc(C(F)F)cc2C(F)F)sc(C)c1C | i
CSC(=NS(=O)(=O)c1ccc(C)cc1)SC | i
COc1ccc(-n2c(CNC(=O)c3ccc(S(=O)(=O)N4CCCC4)cc3)n[nH]c2=S)cc1 | 0.8
Cc1c(C(=O)NC2CCCCC2)oc2c1C(=O)CC(C)(C)C2 | i
COc1ccc2c(c1)c(C(=O)CN1CCN(C)CC1)c(C)n2Cc1ccccc1 | i
O=C(Cc1c(C(=O)O)[nH]c2ccccc12)NCCN1CCN(c2cccc(Cl)c2)CC1 | i
C/C(Cn1nnc([N+](=O)[O-])n1)=N\NC(=O)c1ccc(Cl)c(Cl)c1 | 1.6

(list continues)
SMILES | H5N1 CPE
O=C(O)c1cccc(N2CCCC2)c1 | 0.6
CCOc1ccc(S(=O)(=O)N(CC(=O)O)c2ccc(C)cc2)cc1 | 2.3
CC(C)c1ccc(-c2nnn(CCC(=O)O)n2)cc1 | i
CC(C)CN(CCCNC(=O)CC1Oc2ccccc2NC1=O)CC(C)C (stereo unspecified) | i
Cc1ccc(N(C)C(=O)N2CCN(S(=O)(=O)c3ccc(C)cc3)CC2)cc1 | 3.8
CC1CCc2sc(C(=O)Nc3nnc(SCc4ccc(F)cc4)s3)cc2C1 (stereo unspecified) | i
COc1ccc(NC(C)=O)cc1NC(=O)CN1CCN(CC(=O)Nc2ccccc2Cl)CC1 | 0.7
O=C(C1CC(c2ccccc2O)=NO1)N1CCc2ccccc2C1 (stereo unspecified) | i
COc1ccc(N2CCN(C(=O)c3ccc(NS(=O)(=O)c4ccc(F)c(F)c4)cc3)CC2)cc1 | i
CC(C)NC(=O)c1c(O)c2ccccc2[nH]c1=O | i
C/C(=C\C(=O)c1ccc(C)cc1)Nc1ccc(N2CCOCC2)cc1 | i
O=C(NC12CC3CC(CC(C3)C1)C2)N1CC2Cc3cccc(=O)n3C(C2)C1 (stereo unspecified) | 0.6
Cc1cc(NCC2CCCO2)n2c(nc3ccccc32)c1C#N (stereo unspecified) | 3.1
Cn1nnc2c(N3CCCCC3)nccc21 | 1.4
O=C(O)CCCc1nc(-c2ccc(Cl)cc2)no1 | 0.4
COc1ccc(C(C(=O)NC2CCCC2)N(Cc2ccc(C)cc2)C(=O)c2ccn[nH]2)cc1OC (stereo unspecified) | i
CCN(Cc1ccccc1)C(=O)Cn1cc2c(n1)CCCC2 | i
Cc1ccc(SCCC(=O)NCc2ccco2)cc1 | 0.1
S=c1[nH]nc(CSc2nc3ccccc3s2)n1C1CCCCC1 | 0.8
COc1ccc(-c2nc(CS(=O)CC(=O)NCc3cccnc3)c(C)o2)cc1 (stereo unspecified) | 1.2
COc1cc2nc(N(C)C)nc(N)c2cc1OC | i
CCOC(=O)C=C1CCN(c2ncc(C(F)(F)F)cc2Cl)CC1 | i
Cc1ccc(S(=O)(=O)N(C)c2ccc(C(=O)NCC3CCCO3)cc2)cc1 (stereo unspecified) | 1.7
CCOC(=O)CN(Cc1ccccc1)S(=O)(=O)c1ccc(NC(C)=O)cc1 | 0.9
O=C(NCCCN1CCCCCC1)c1ccc(N2CCCC2=O)cc1 | 0.0
CC(=O)c1cccc(NC(=O)C2CCCN(S(=O)(=O)c3cccc4cccnc34)C2)c1 (stereo unspecified) | 1.1
CCCSc1ncnc2c1oc1ccccc12 | 0.4
CCn1c(=O)n(CC(=O)Nc2cc(OC)ccc2OC)c(=O)c2ccccc21 | i
CCOC(=O)c1c(NC=O)sc2c1CCC2 | i
COc1cccc(C(C(=O)NC2CCCC2)N(C(=O)c2ccco2)C2CC2)c1OC (stereo unspecified) | 1.4
Cc1cc(C)nc(N2CCC(C(=O)Nc3cccc(C(F)(F)F)c3)CC2)n1 | i
CCN(CC)CCCN1C(=O)c2oc3ccccc3c(=O)c2C1c1cc(OC)ccc1OC (stereo unspecified) | i
O=C(O)CSCCCC(=O)Nc1ccc(Br)cc1 | i
CCc1cccc2c(C=C(C#N)C#N)cn(CC(=O)N3CCCC3)c12 | i
CN1C(=O)CC(N2CCC(C(N)=O)(N3CCCCC3)CC2)C1=O (stereo unspecified) | 0.7
COc1ccc(NC(=O)c2cc(C(C)C)on2)c(OC)c1 | i

For convenience, part of the list above.
SMILES | H5N1 CPE
O=C(N/C(=C/c1ccco1)C(=O)N1CCCC1)c1cccs1 | i
CCCn1nnc(NC(=O)c2ccc(Br)o2)n1 | i
O=C(NC1CCCCC1)C1CCN(c2cnccn2)CC1 | i

Further entries
SMILES | H5N1 CPE
Cc1ccccc1-c1nnc(SCC(=O)Nc2cccc(C)c2C)o1 | i
Cc1ccc(Cn2ccc(NC(=O)c3cc(C(C)C)on3)n2)cc1 | i
Cc1cc2nc(N)sc2cc1[N+](=O)[O-] | 1.3
O=C(NC1CCCCC1)C(c1ccccc1)N1CCOCC1 (stereo unspecified) | i
CCCCNC(=O)CC1Nc2ccccc2NC1=O (stereo unspecified) | i
CCCOc1ccc(S(=O)(=O)NCCN2CCOCC2)c2ccccc12 | 1.9
Cc1ccc(C)c(/C(O)=C2\C(=O)C(=O)N(CCCn3ccnc3)C2c2ccncc2)c1 (stereo unspecified) | 2.4
CN(C)CCNC=C(C(=O)Nc1ccc(Cl)cc1Cl)C(=O)Nc1ccc(Cl)cc1Cl | i

Bioassay records (PubChem)
